From PubChem BioAssay
VACV mCherry inh = inhibitors of vaccinia virus infection (mCherry reporter signal). AID 720579. hit rate 0.63% among 310,000. Potency, µM (series often up to 36.5 µM), inactives show top-dose activity change, negative = inhibition, most hits filed as inhibitors. Vaccinia virus mCherry reporter infection, fluorescence; about a quarter of the inactives have no number; active = well fitted inhibition curve with a large enough effect; inconclusive = small, poorly fitted or top-dose-only effect; inactive = no such curve, though single readings can be large or run the other way; tested in A549 cells; also: nearly all actives have a fitted effect of over 35% in size; inactives centre near -10
VACV Venus inh = inhibitors of vaccinia virus (Venus reporter) | Vaccinia virus Venus reporter expression, fluorescence | Potency, µM (series often up to 36.5 µM), for the others: top-dose activity change, negative = inhibition, most hits filed as inhibitors | hit rate 0.46% among 330,000 | AID 720580; active means well fitted inhibition curve with a large enough effect; inconclusive means small, poorly fitted or top-dose-only effect; inactive means no such curve, though single readings can be large or run the other way; tested in A549 cells; also: nearly all actives have a fitted effect of over 30% in size; inactives centre near -10
* marks the source's active call; other numbers are inactive results; [ ] = remark or other dose. % is scaled to controls: 0 for no effect and ±100 for the full control effect; potency is read from the fitted curve at half-maximal effect.

`COc1cc(COC(=O)Oc2ccc(CNC(C)=O)cc2OC)c([N+](=O)[O-])cc1OC` gave VACV mCherry inh -5% and VACV Venus inh -11%.
`COC(=O)Cc1c(C)[nH]n(-c2cc(Cl)cc(Cl)c2)c1=O` gave VACV mCherry inh inactive and VACV Venus inh -11%.
Screening COc1ccc(Cl)cc1NC(=O)CN(C)C(=O)CCC(=O)c1cc(C)sc1C returned VACV mCherry inh inconclusive and VACV Venus inh -29%.
Screening CC(C)c1ccc(NC(=O)CCCc2nc(-c3ccc(Cl)cc3)no2)cc1 returned VACV mCherry inh -13% and VACV Venus inh -19%.
`CCCN1C(=O)/C(=C2/C=Cc3ccccc3N2CC)SC1=S` gave VACV mCherry inh inactive and VACV Venus inh 9%.
For Cn1c(CNC(=O)c2ccco2)nnc1SCC(=O)c1ccccc1 the results were VACV mCherry inh inactive and VACV Venus inh -9%.
Screening CCOc1ccc(OCCC(=O)OCC(=O)Nc2ccc3c(c2)OCCO3)cc1 returned VACV mCherry inh inactive and VACV Venus inh 0%.
For COc1cc(C(=O)/C=C/Nc2ccc(NC(C)=O)cc2)cc(OC)c1OC the results were VACV mCherry inh -29% and VACV Venus inh -21%.
For O=C(Nc1nnc(COc2ccc(F)cc2)s1)c1cccs1 the results were VACV Venus inh -4%.
`Cc1ccc(S(=O)(=O)N(C)C[C@@H]2OCc3cn(nn3)CCCC(=O)N([C@@H](C)CO)C[C@H]2C)cc1` gave VACV mCherry inh inactive and VACV Venus inh -4%.
`COc1cccc(CNC(=O)c2cc3c(c(-c4cccc(-c5cccc(C#N)c5)c4)n2)[C@H](CCO)N(S(=O)C(C)(C)C)C3)c1` (some centres not stated) gave VACV mCherry inh 7% and VACV Venus inh -11%.
`CCOc1ccc(NC(=O)c2ccc(-c3csc(C)n3)cc2)cc1` gave VACV mCherry inh -14% and VACV Venus inh -18%.
`COc1ccc(C(=O)NCC(c2cccnc2)N2CCN(c3ccccc3OC)CC2)cc1OC` (configuration not stated) gave VACV mCherry inh -4% and VACV Venus inh -12%.
Cn1c(=O)c(=O)n(C)c2cc(N3CCCCC3)c(NS(=O)(=O)c3ccc([N+](=O)[O-])cc3)cc21 was read as VACV mCherry inh -19%[7.34 µM] and VACV Venus inh -15%[7.34 µM].
For O=C(COC(=O)COc1ccccc1)Nc1ncc([N+](=O)[O-])s1 the results were VACV mCherry inh -13% and VACV Venus inh 0%.
For FC(F)Sc1ccc(NC(=S)NC2CCCCC2)cc1 the results were VACV mCherry inh -29% and VACV Venus inh -16%.
Screening O=C(C(=O)N1CCN(c2ccccc2)CC1)c1ccc2c(c1)OCO2 returned VACV mCherry inh -20% and VACV Venus inh -1%.
N#CC(=C(c1ccccc1)c1ccccc1)c1ccccc1 was read as VACV mCherry inh inactive and VACV Venus inh -2%.
Screening CC1=C(C(=O)Nc2ccccc2)C(c2cccs2)n2nc(SCc3ccccc3)nc2N1 (configuration not stated) returned VACV mCherry inh -5% and VACV Venus inh 3%.
For O=S1(=O)c2ccccc2N(Cc2ccc(F)cc2)c2ccccc21 the results were VACV mCherry inh -28% and VACV Venus inh -24%.

Two entries drawn at random from those above, as already listed:
For O=S1(=O)c2ccccc2N(Cc2ccc(F)cc2)c2ccccc21 the results were VACV mCherry inh -28% and VACV Venus inh -24%.
`COc1cc(COC(=O)Oc2ccc(CNC(C)=O)cc2OC)c([N+](=O)[O-])cc1OC` gave VACV mCherry inh -5% and VACV Venus inh -11%.

Additional records follow:
`Cc1ccc(C(=O)Nc2nnc(C)s2)o1` gave VACV mCherry inh inactive and VACV Venus inh -7%.
Screening COc1ccc(Cl)cc1-c1cc(C(=O)NCc2cccc(C(F)(F)F)c2)[nH]n1 returned VACV mCherry inh 5% and VACV Venus inh -8%.
For Cc1ccc(C2C(C(=O)c3cccs3)=C(O)C(=O)N2CCN2CCOCC2)o1 (configuration not stated) the results were VACV mCherry inh -16% and VACV Venus inh -11%.
Screening Nc1ccc(C(=O)OCC(=O)NC(=O)c2ccccc2)cc1[N+](=O)[O-] returned VACV mCherry inh inactive and VACV Venus inh -8%.
CCCCn1c(N)c(N(CC(C)C)C(=O)CSc2nnc(-c3ccc(Cl)cc3)o2)c(=O)[nH]c1=O was read as VACV mCherry inh inactive and VACV Venus inh -9%.
Screening CC(=O)N/N=C/c1cc(C(C)C)cc(/C=N/NC(C)=O)c1O returned VACV mCherry inh inconclusive and VACV Venus inh -13%.
For O=C(O)c1cn(Cc2ccccc2)c2ccc(Cl)cc2c1=O the results were VACV mCherry inh inactive and VACV Venus inh -2%.
`Nc1nccnc1C(=O)OCC(=O)Nc1cccc(S(=O)(=O)N2CCCCC2)c1` gave VACV mCherry inh -12% and VACV Venus inh -13%.
For C=CCN(CC=C)C(=O)c1ccc(OC2CCN(Cc3ccccn3)CC2)cc1 the results were VACV mCherry inh -2% and VACV Venus inh 1%.
Screening CCCC(=O)C1=C(O)C(C(=O)OC)C(C)(C)CC1=NC(C)C (configuration not stated) returned VACV Venus inh -4%.
`O=c1c2sc3nc(N4CCOCC4)c4c(c3c2ncn1-c1ccccc1)CCCC4` gave VACV mCherry inh inconclusive and VACV Venus inh inconclusive.
Screening Cc1ccc(-c2nnn(CCC(=O)N3CCCCC3C)n2)cc1 (configuration not stated) returned VACV mCherry inh -8% and VACV Venus inh -19%.
Screening COc1ccc(C(=O)NCc2nnc(SCC(=O)Nc3ccccc3OC)n2C)cc1 returned VACV mCherry inh 1% and VACV Venus inh 1%.
For CC(C)(C)SC(=O)CC1NS(=O)(=O)OC2CCCCC12 (configuration not stated) the results were VACV mCherry inh inactive and VACV Venus inh -13%.
For CCN(CC)S(=O)(=O)c1ccc(-c2nnc(SCC(=O)N3CCOCC3)o2)cc1 the results were VACV mCherry inh 2.5µM* and VACV Venus inh 3.5µM*.
Screening CC1CCN(CCOc2ccc(Cl)c(Cl)c2)CC1 returned VACV mCherry inh -14% and VACV Venus inh -2%.
Screening Nc1ccc2c(c1)COc1ccccc1O2 returned VACV mCherry inh inactive and VACV Venus inh -24%.
Screening CC(C)(C)c1ccc(C(=O)/C(C#N)=C/c2cccs2)cc1 returned VACV mCherry inh -4% and VACV Venus inh 25%.
Screening Cc1cc(C)n(-c2cccc(C(=O)NCC3Cc4cccc(-c5ccccn5)c4O3)c2)n1 (configuration not stated) returned VACV mCherry inh inconclusive and VACV Venus inh -27%.
For CN(C(=O)COC(=O)Cn1c(C(F)(F)F)nc2ccccc21)c1c(N)n(Cc2ccccc2)c(=O)[nH]c1=O the results were VACV mCherry inh -16% and VACV Venus inh -28%.
Screening COc1cc(CNc2ccc(N3CCCC3)cc2)ccc1OCc1ccccc1F returned VACV mCherry inh -2% and VACV Venus inh 13%.
Screening Cc1cnc(CN(C)Cc2c(C(=O)N3CCCCCCC3)nc3ccc(Cl)cn23)[nH]1 returned VACV mCherry inh inactive and VACV Venus inh -12%.
For Cn1c(SCc2cccc([N+](=O)[O-])c2)nc2ccccc2c1=O the results were VACV mCherry inh inconclusive and VACV Venus inh inconclusive.
`COc1ccc(S(=O)(=O)N(CC(=O)O)Cc2ccccc2)cc1OC` gave VACV mCherry inh -12% and VACV Venus inh -9%.
Screening O=S1(=O)c2ccc(Br)cc2N2CCC[C@@H]2CN1Cc1ccc(Cl)cc1 returned VACV mCherry inh -5% and VACV Venus inh -4%.
For COc1cccc2sc(NC(=O)c3ccc(S(=O)(=O)N4CCOCC4)cc3)nc12 the results were VACV mCherry inh inactive and VACV Venus inh -10%.
For O=C(NC(=S)NCC1CCCO1)c1ccccc1[N+](=O)[O-] (configuration not stated) the results were VACV mCherry inh 0% and VACV Venus inh -3%.
`NS(=O)(=O)OCc1ccc(C(F)(F)F)cc1` gave VACV mCherry inh -30% and VACV Venus inh -14%.
`O=C(Nc1nc(-c2ccccc2)cs1)c1cccnc1` gave VACV mCherry inh inconclusive and VACV Venus inh -26%.
O=C(CSC1=NS(=O)(=O)c2ccccc2N1)NCc1ccc(F)cc1 was read as VACV mCherry inh -19% and VACV Venus inh -12%.
Cc1ccc(C(=O)Oc2ccc(C(=O)COC(=O)C3CC(=O)N(Cc4ccco4)C3)cc2)cc1 (configuration not stated) was read as VACV mCherry inh -9% and VACV Venus inh -13%.
Screening Cc1cc(N)n(-c2ccc(S(=O)(=O)N3CCOCC3)cc2[N+](=O)[O-])n1 returned VACV mCherry inh -7% and VACV Venus inh -6%.
Screening O=C1CC(Sc2nnc(-c3ccccc3O)o2)C(=O)N1c1ccccc1 (configuration not stated) returned VACV mCherry inh inactive and VACV Venus inh 6%.
`COc1c2c(cc3oc(=O)ccc13)OC(C)(C)C=C2` gave VACV mCherry inh 19% and VACV Venus inh -8%.
Cc1ccc(N(CC(=O)NCCSc2ccccn2)S(C)(=O)=O)cc1 was read as VACV mCherry inh inactive and VACV Venus inh -4%.
Screening CCc1nc2c(OCCC3CCCCC3)cccn2c1N(C=O)Cc1ccccc1 returned VACV mCherry inh inconclusive and VACV Venus inh -13%.
`CCOC(=O)c1sc2ccccc2c1S(=O)(=O)Nc1ccc(N(C)C)cc1` gave VACV mCherry inh -5% and VACV Venus inh -4%.
`COc1ccc(NC(=O)c2cc(OC)c(OC)cc2OC)c(S(=O)(=O)N2CCOCC2)c1` gave VACV Venus inh 0%.
Screening CCOC(=O)C1CCN(C(=O)c2ccc(-n3ccc4ccccc43)s2)CC1 returned VACV mCherry inh -2% and VACV Venus inh -10%.
Cn1c(=O)n(-c2ccc3c(c2)OCO3)c2nc(-c3ccccc3)nc(C(N)=O)c21 was read as VACV mCherry inh -5% and VACV Venus inh 1%.
Screening COc1ccccc1NC(=O)c1sc2nc(C)c(C(=O)Nc3ccc(C)cc3C)c(-c3ccccc3Cl)c2c1N returned VACV mCherry inh 2%[7.34 µM] and VACV Venus inh -4%[7.34 µM].
`COc1cc2c(cc1O)C(CSC)Cc1cc3c(cc1N(C)CC2)OCO3` (configuration not stated) gave VACV mCherry inh -22% and VACV Venus inh -21%.
Screening CCNC(=O)C1CCCN(C(=O)c2cccc3ccccc23)CC1 (configuration not stated) returned VACV mCherry inh inactive and VACV Venus inh -3%.
For CC(Oc1ccc(Cl)cc1Cl)C(=O)NC1=NN(c2ccccc2)C(=O)C1 (configuration not stated) the results were VACV mCherry inh -26% and VACV Venus inh -27%.
`CCN(C(=O)CSc1nnc(-c2ccc(OC(F)F)cc2)n1N)C1CCS(=O)(=O)C1` (configuration not stated) gave VACV mCherry inh inactive and VACV Venus inh -13%.
`C[C@H]1CN([C@@H](C)CO)C(=O)CCCn2cc(nn2)CO[C@@H]1CN(C)S(=O)(=O)c1cccc(C#N)c1` gave VACV mCherry inh -1% and VACV Venus inh -10%.
COc1ccccc1OCCOCCOc1ccccc1Cl was read as VACV mCherry inh -5% and VACV Venus inh -15%.
`COC(=O)N/N=C/c1cc(C)n(-c2ccc(F)cc2)c1C` gave VACV mCherry inh -10% and VACV Venus inh -15%.
For Cc1[nH]c2ccc(F)cc2c1CCNC(=O)C1CCCCC1C(=O)OCC(F)(F)F (configuration not stated) the results were VACV mCherry inh -28% and VACV Venus inh -19%.
COCCNC(=O)C1(C)CCN(C(=O)c2sc(-c3ccccc3)nc2C)C1 (configuration not stated) was read as VACV mCherry inh 18% and VACV Venus inh 6%.
`CCSC1=N/C(=C\c2cccc(F)c2)C(=O)S1` gave VACV mCherry inh -10% and VACV Venus inh -9%.
Cc1ccc2c(COC(=O)CNC(=O)c3ccccc3)cc(=O)oc2c1 was read as VACV mCherry inh -10% and VACV Venus inh 1%.
Screening Cc1noc(C)c1S(=O)(=O)N(C)C[C@H]1Oc2ccc(NS(=O)(=O)c3ccccc3)cc2C(=O)N([C@H](C)CO)C[C@@H]1C returned VACV mCherry inh inactive and VACV Venus inh -18%.
Screening Cc1cc(C)n(C2CC(=O)N(c3cccc(Cl)c3)C2=O)n1 (configuration not stated) returned VACV mCherry inh inactive and VACV Venus inh -3%.

Of the compounds above, these have fluorine:
For O=C(Nc1nnc(COc2ccc(F)cc2)s1)c1cccs1 the results were VACV Venus inh -4%.
For FC(F)Sc1ccc(NC(=S)NC2CCCCC2)cc1 the results were VACV mCherry inh -29% and VACV Venus inh -16%.
For O=S1(=O)c2ccccc2N(Cc2ccc(F)cc2)c2ccccc21 the results were VACV mCherry inh -28% and VACV Venus inh -24%.
Screening COc1ccc(Cl)cc1-c1cc(C(=O)NCc2cccc(C(F)(F)F)c2)[nH]n1 returned VACV mCherry inh 5% and VACV Venus inh -8%.
For CN(C(=O)COC(=O)Cn1c(C(F)(F)F)nc2ccccc21)c1c(N)n(Cc2ccccc2)c(=O)[nH]c1=O the results were VACV mCherry inh -16% and VACV Venus inh -28%.
Screening COc1cc(CNc2ccc(N3CCCC3)cc2)ccc1OCc1ccccc1F returned VACV mCherry inh -2% and VACV Venus inh 13%.
`NS(=O)(=O)OCc1ccc(C(F)(F)F)cc1` gave VACV mCherry inh -30% and VACV Venus inh -14%.
O=C(CSC1=NS(=O)(=O)c2ccccc2N1)NCc1ccc(F)cc1 was read as VACV mCherry inh -19% and VACV Venus inh -12%.
`CCN(C(=O)CSc1nnc(-c2ccc(OC(F)F)cc2)n1N)C1CCS(=O)(=O)C1` (configuration not stated) gave VACV mCherry inh inactive and VACV Venus inh -13%.
`COC(=O)N/N=C/c1cc(C)n(-c2ccc(F)cc2)c1C` gave VACV mCherry inh -10% and VACV Venus inh -15%.
For Cc1[nH]c2ccc(F)cc2c1CCNC(=O)C1CCCCC1C(=O)OCC(F)(F)F (configuration not stated) the results were VACV mCherry inh -28% and VACV Venus inh -19%.
`CCSC1=N/C(=C\c2cccc(F)c2)C(=O)S1` gave VACV mCherry inh -10% and VACV Venus inh -9%.
